Screens deposited in PubChem BioAssay by National Center for Advancing Translational Sciences (NCATS).
p53null 39C tox: qHTS Screen for Compounds that Selectively Target Cancer Cells with p53 Mutations: Cytotoxicity of p53 Null Cells at the Nonpermissive Temperature | H1299 p53-null (neo) cells, 39C, ATPlite viability, 24 h | actives 0.97% (n = 55,000) | Potency, µM (titrated, usually from 46.1 µM), inactives show top-dose activity, negative = cell killing, actives largely listed as cytotoxic | AID 904, 2007;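 note: potency is the fitted concentration of half-maximal effect; 0% = DMSO only and -100% = full killing by 100 µM tamoxifen; nearly all actives have a fitted effect of over 50% in size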
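H1299 lung cancer cells, p53-null (H1299-neo) or expressing p53 A138V (H1299-p53A138V), were plated overnight at 37C, then exposed to compounds at up to 46 uM for 24 hr at 39C. Viability was read by ATP-based luminescence.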
PTAP-TSG101 blk: qHTS Validation Assay for Inhibitors of HIV-1 Budding by Blocking the Interaction of PTAP/TSG101: Sytravon Library Screen; AID 1347069, 2019; 44,000 tested, under 10 active; Fluorescence polarization, FITC-PTAP peptide/Tsg101, 20 min; Potency, µM (top dose mostly 115 µM), for inactives: top-dose activity change, negative = inhibition, most hits filed as inhibitors; note: potency is the fitted concentration of half-maximal effect; 0% is about no effect
Target sequence (Q99816 whole entry, looked up): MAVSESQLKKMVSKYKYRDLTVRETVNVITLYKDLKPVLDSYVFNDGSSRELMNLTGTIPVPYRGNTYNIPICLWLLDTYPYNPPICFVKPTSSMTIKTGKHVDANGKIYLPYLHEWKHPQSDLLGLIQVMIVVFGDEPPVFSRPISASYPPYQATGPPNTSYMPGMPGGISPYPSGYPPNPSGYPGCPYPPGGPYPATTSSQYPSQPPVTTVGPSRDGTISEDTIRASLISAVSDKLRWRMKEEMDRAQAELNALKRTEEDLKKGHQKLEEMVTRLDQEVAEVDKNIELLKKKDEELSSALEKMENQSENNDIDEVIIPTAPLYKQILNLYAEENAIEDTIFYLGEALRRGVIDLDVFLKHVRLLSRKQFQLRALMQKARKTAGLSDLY
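qHTS FP binding, 20 min r.t.: 10 uM Tsg101 domain + 50 nM FITC-PTAP peptide, pH 7.5 HEPES buffer with TCEP and EDTA.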
B2AR arrestin ag: qHTS assay of beta-arrestin-biased ligands of beta2-adrenergic receptor: NCGC Sytravon Library Screen; Beta-2 adrenergic receptor (Homo sapiens), P07550; 44,000 tested, under 10 active; Potency, µM (doses to about 46.1 µM), for inactives: at the top dose activation, actives largely listed as activators; HTLA Tango cells, beta-arrestin recruitment, luciferase luminescence, 18 h;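 note: potency is the fitted concentration of half-maximal effect; 0% = DMSO and full agonism = EC100 isoproterenol or metaproterenol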
Target sequence (P07550 whole entry, looked up): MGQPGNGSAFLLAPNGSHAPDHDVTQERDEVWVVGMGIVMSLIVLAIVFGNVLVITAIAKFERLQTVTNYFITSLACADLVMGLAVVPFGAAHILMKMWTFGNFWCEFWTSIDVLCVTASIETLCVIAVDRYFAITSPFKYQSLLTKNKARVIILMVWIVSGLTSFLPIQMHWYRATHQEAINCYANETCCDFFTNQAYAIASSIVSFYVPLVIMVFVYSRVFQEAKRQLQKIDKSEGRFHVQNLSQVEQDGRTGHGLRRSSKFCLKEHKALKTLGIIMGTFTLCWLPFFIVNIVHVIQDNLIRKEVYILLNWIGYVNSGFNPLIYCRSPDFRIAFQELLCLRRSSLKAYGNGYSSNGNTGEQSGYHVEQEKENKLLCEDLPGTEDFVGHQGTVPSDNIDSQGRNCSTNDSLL
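Receptor–beta-arrestin recruitment read by tTA-responsive luciferase: compound titrations (up to 46 µM) incubated 18 h with Tango cells, then luminescent substrate 15 min at room temperature. Concentration-response fits classified by r2, efficacy and activity.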
FH mod: Identification of activators of human fumarate hydratase by quantitative high-throughput screening. Fumarate hydratase, mitochondrial (Homo sapiens), P07954. FH coupled MDH/diaphorase resazurin fluorescence, 15 min. Potency, µM (titrated, usually from 79.9 µM), without a hit: at the top dose activity change, negative = inhibition, usual class: inhibitors. actives 0.22% (n = 54,000). AID 1347055, 2019; note: potency is the fitted concentration of half-maximal effect; % is set by controls: 0 for no effect and ±100 for the full control effect; the screen sought activators but most active calls are inhibition curves; nearly all actives have a fitted effect of over 45% in size
GALK inh: qHTS Assay for Inhibitors of Human Galactokinase (GALK): NCGC Sytravon Library Screen. recombinant GALK, Kinase-Glo ATP luminescence, 1 h. P51570. 44,000 tested, under 10 active. Potency, µM (top dose mostly 57.5 µM), for inactives: top-dose activity, negative = inhibition, most hits filed as inhibitors. AID 1347072, 2019;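 note: plate controls were full GALK reaction for no effect and reaction lacking GALK for full effect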
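Reactions with and without enzyme served as controls. GALK at 5 nM phosphorylates 100 uM galactose using 35 uM ATP (HEPES pH 8.0, Mg2+) for 1 h at RT, with luminescence read 10 min after adding Kinase-Glo Plus.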
p53null 32C tox: qHTS Screen for Compounds that Selectively Target Cancer Cells with p53 Mutations: Cytotoxicity of p53 Null Cells at the Permissive Temperature; H1299-neo p53 null cells, ATP luminescence, 24 h, 32C; Potency, µM (top dose mostly 46.1 µM), for inactives: at the top dose activity change, negative = cytotoxicity, hits mostly cytotoxic; actives 0.62% (n = 55,000); AID 903, 2007;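 note: potency is the fitted concentration of half-maximal effect; 0% = DMSO only and -100% = full killing by 100 µM tamoxifen; nearly all actives have a fitted effect of over 55% in size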
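AC50 values derive from Hill modelling of qHTS concentration-response data (up to 46 uM) in H1299-neo cells. Cells were treated 24 h at 32C following overnight attachment at 37C; viability was read as cellular ATP.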
* marks the source's active call; other numbers are inactive results; ? = inconclusive; / = no result given; [ ] = remark or other dose. Calls come from the whole dose curve; as a rule, active = well fitted curve in the direction sought with a large enough effect; inconclusive = small, poorly fitted or top-dose-only effect, or another doubt; inactive = no such curve, though single readings can be large; an effect the other way counts as inactive or inconclusive. The list is partial; the hit share may differ from the screen's.

SMILES | p53null 39C tox | PTAP-TSG101 blk | B2AR arrestin ag | FH mod | GALK inh | p53null 32C tox
O=C1[C@@H]2CSC(c3ccc(F)cc3)N2C(=O)N1c1ccc(Cl)cc1 (some centres undefined) | -5.2% | 0.5% | -0.2% | -9.6% | -1.3% | -4.6%
Cc1cccc(-n2nc(C)c(C(=O)N3CCN(c4ccccc4)CC3)c2-n2cccc2)c1 | 9.6% | -13.9% | 2.3% | -8.8% | -1.6% | 10.4%
COc1ccc(NC(=O)CSc2nc(-c3ccco3)cc(C(F)(F)F)n2)cc1Cl | -8.2% | -4.2% | -1.1% | -6.9% | 0.5% | 6.3%
O=C(NCc1ccccc1Cl)C1CCCN(c2ncnc3onc(-c4ccc(F)cc4)c23)C1 (centres undefined) | -2.2% | -3.5% | 1.5% | -14.1% | -3.8% | -5.4%
CN(C)CCN(Cc1ccco1)S(=O)(=O)c1cc2c(cc1Cl)NC(=O)CO2 | 14.8% | -3.7% | 0.1% | -5.9% | -5.9% | -2.1%
COc1ccc(C2NC(=O)N(C)C3=C2C(=O)N(c2cccc(Cl)c2)C3)cc1 (centres undefined) | 1.4% | -9.4% | 1.2% | -8.9% | 0.0% | 10.2%
COc1ccc(Cc2nc3ccc(C(=O)NCc4ccc(OC)cc4OC)cc3o2)cc1 | ? | -4.6% | 0.4% | -25.8% | 0.0% | 0.3%
COc1ccc(N2C(=O)CS(=O)(=O)C23C(=O)N(Cc2c(F)cccc2Cl)c2ccccc23)cc1 (centres undefined) | -1.7% | 0.0% | -0.8% | -7.1% | 1.9% | 3.6%
Cc1nn2c(=O)cc(CN(C)c3ccccc3)nc2s1 | -22.6% | 0.9% | 0.1% | ? | -1.3% | -4.8%
Cc1cc(C)c(Cn2c(C(O)c3ccccc3)nc3ccccc32)c(C)c1 (centres undefined) | ? | -3.1% | -1.3% | -38.8% | 3.9% | 9.7%
O=c1c(-c2ccccc2)c1-c1ccccc1 | / | / | / | -0.2%[53.3 µM] | / | /
CCc1ccc(NC(=O)Cn2nnc(C(=O)NCc3ccc(C)cc3)c2N)cc1 | -4.6% | -6.9% | 0.6% | 7.1% | 1.3% | 6.1%
COc1ccc(C(=O)CN2C(=O)N(c3cc(C)ccc3C)S(=O)(=O)c3ccccc32)cc1 | 3.1% | -7.8% | -3.5% | -4.8% | 1.1% | -6.6%
Cc1cc(C)cc(NC(=O)CN2C(=O)c3ccccc3Sc3ccc(C(=O)N4CCCC4)cc32)c1 | 21.5% | -2.2% | 1.1% | -17.3% | 2.9% | -10.4%
COc1ccccc1NC(=O)CN1C(=O)C(c2ccc(F)cc2)=NC1(C)C | -21.3% | -1.5% | -3.0% | -6.5% | 7.6% | 0.9%
CCC(C)NC(=O)CSc1nc2n[nH]c(C)c2c(=N)n1-c1cc(Cl)ccc1C (centres undefined) | 23.3% | 1.0% | 0.8% | -4.1% | 2.2% | 15.3%
COc1cccc(C(=O)c2sc3nc(-c4ccccc4)cc(C(F)(F)F)c3c2N)c1 | -3.1% | 28.2µM* | 0.3% | -18.3% | 0.0% | -6.5%
CC(Sc1ncc(S(=O)(=O)c2ccc(C(C)C)cc2)c(N)n1)C(=O)Nc1ccccc1 (centres undefined) | -18.7% | -3.5% | 2.5% | -19.8% | 1.7% | 14.7%
COc1ccc(CNC(=O)Nc2cn(CC(C)C)c(=O)c3ccccc23)cc1 | ? | -4.4% | -0.7% | ? | 0.4% | 2.5%
Cc1ccc(NC(=O)CSc2nc(-c3ccc(F)cc3)cc(C(F)(F)F)c2C#N)cc1 | -14.5% | 0.4% | 0.0% | -2.6% | 0.0% | -5.6%
COc1ccc(CNCc2c(C(=O)O)c(C)n(Cc3ccccc3C)c2C)cc1OC | -11.0% | -2.7% | -1.8% | -14.2% | 2.7% | 2.1%
CC1CCCCCCCc2cc(O)cc(O)c2C(=O)O1 (centres undefined) | / | / | / | -16.5% | / | /
COc1cc(OC)cc(N2C(=O)N(CC(=O)c3ccc(F)cc3)c3ccccc3S2(=O)=O)c1 | 14.2% | 0.3% | -0.8% | -22.3% | -1.6% | -1.0%
O=C(NNc1ncnc2c1cnn2-c1ccccc1)c1cccc(Cl)c1 | 22.9% | -0.7% | -0.2% | 3.8% | -1.3% | ?
COc1ccccc1C(=O)N1CCCCC1CCN1CCOCC1 (centres undefined) | -10.3% | -1.3% | -0.3% | -5.6% | -5.2% | 1.7%
Cc1ccc(O)c(NC(=O)c2noc3c2CCCCC3)c1 | 12.6µM* | -10.5% | 0.9% | -14.0% | 0.0% | 12.6µM*
COc1ccc(Cl)cc1NC(=O)CN1C(=O)C(C)(C)c2cc(S(=O)(=O)N3CCCCC3)ccc21 | 0.9% | -5.8% | 0.8% | -19.0% | -0.2% | 21.3%
CCCN1CCN(C(=O)Cn2ncc3c4ccccc4n(Cc4cccc(Cl)c4)c3c2=O)CC1 | -14.3% | 62.3%[activator] | -3.4% | -18.0% | 7.3% | 3.7%
Cc1ccc(Cc2c(C)nc3nc(SCC(=O)NC4CCC(C)CC4)nn3c2C)cc1 (centres undefined) | 18.8% | 0.8% | 0.9% | ? | 6.5% | 73.2%[activator]
CC(C)CC(C(=O)NCCc1ccccc1)N1Cc2ccccc2C1=O (centres undefined) | -4.7% | -3.2% | 1.0% | 1.7% | 0.1% | 0.5%
CC(C)Cc1nn2cc(-c3cccc(Br)c3)nc2s1 | 15.8µM* | -0.2% | -1.2% | -10.6% | 8.7% | 12.6µM*
COc1ccc(CCNC(=O)C(=O)Nc2ccc(C)c(C)c2)cc1 | 3.3% | -0.4% | 0.0% | 3.8% | 0.0% | 1.7%
CCOc1ccc(NC(=O)CCc2c(C)nc3cc(-c4ccc(Cl)cc4)nn3c2C)cc1 | -26.3% | 0.0% | 1.1% | -28.3% | 1.1% | -0.9%
CCc1cccc(N2C(=O)CS(=O)(=O)C23C(=O)N(Cc2ccccc2)c2ccc(C)cc23)c1 (centres undefined) | 9.9% | -2.7% | -0.1% | -11.9% | -1.4% | 21.3%
COc1ccc(-c2cc(C(F)(F)F)nc(NCc3ccccc3)n2)cc1OC | -5.9% | -0.9% | -2.3% | ? | 5.0% | -0.6%
NC(=O)c1nc(-c2ccc(F)c(F)c2)nc2c1[nH]c(=O)n2-c1cccc(Cl)c1 | 7.5% | -0.2% | -3.5% | 5.5% | -1.4% | 1.5%
Fc1ccc(-c2noc3ncnc(N4CCCCC4)c23)cc1 | 1.8% | 1.1% | 0.3% | -10.1% | 0.9% | 4.1%
COc1cccc(NC(=O)CC2NCCNC2=O)c1 (centres undefined) | -15.8% | -1.9% | 0.8% | 2.6% | 0.0% | 8.1%
CC1=C(C(=O)Nc2cccnc2)C(c2ccc(F)cc2)n2nc(SCc3ccccc3)nc2N1 (centres undefined) | -3.6% | 1.2% | -0.1% | -5.2% | -6.3% | 1.9%
COc1ccc(OC)c(NC(=O)Nc2c(C)n(C)n(-c3ccccc3)c2=O)c1 | -15.5% | -6.2% | 0.6% | 0.4% | 0.0% | 6.2%
Cc1ccc(-n2c3c(c(=O)[nH]c2=O)C(NC(=O)C(C)(C)C)(C(F)(F)F)C(=O)N3)cc1 (centres undefined) | -8.3% | -2.0% | 0.6% | 13.6% | 3.9% | -1.6%
COc1ccc(S(=O)(=O)NCCc2sc(C)nc2C)cc1F | 11.1% | -1.4% | 0.5% | -7.4% | -3.8% | 2.1%
COc1ccc(OC)c(S(=O)(=O)NCCc2sc(-c3ccc(C)cc3)nc2C)c1 | 17.1% | 2.2% | 0.6% | -35.0% | 5.1% | 28.0%
COc1ccc(NC(=O)Cn2c(-c3ccc(F)cc3)cc(C(C)=O)c2C)c(OC)c1 | 31.2%[activator] | -4.2% | -0.8% | -9.8% | -0.8% | 4.3%
CC(C)C1(O[C@@H]2O[C@H](CO)[C@@H](O)[C@H](O)[C@H]2O)CC=C(CO)CC1 (some centres undefined) | / | / | / | 0.4%[53.3 µM] | / | /
